Screening data: PubChem, several laboratories
BJeLR viability – kills HRASV12-expressing BJeLR cells. BJeLR (HRASV12) viability, CellTiter-Glo ATP luminescence, 48 h; reference of the scale not given here. inhibition, % (no concentration beside the values). actives 0.17% (n = 300,000). AID 1554;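 active = replicate mean above 50%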;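 also: 50 nL library stock added to about 25 µL; numbers are from one replicate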
Bead autofluor – compound fluorescence in toxin protease inhibitor counterscreen; compound autofluorescence counterscreen, microsphere flow cytometry; hits give high values; fluorescence intensity (test concentration not listed); actives 3.1% (n = 360,000); AID 624483;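 active = at least 3 SD above the mean of all compounds, about 16000 in these data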;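 also: 100 nL of 1 mM stock went into each well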
PrP UTR inh – inhibition of PrP 5' UTR reporter expression. actives 0.35% (n = 340,000). inhibition, % (test concentration not listed). cell-based PrP 5' UTR mRNA reporter, plate reader;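 active = every replicate at 50% or more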;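 also: 0 = median of the neutral control wells; tested in H4 reporter cells; numbers are from one replicate; inactives centre near -14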
Numbers without * were called inactive; . = no result given. This is a subset. The share of hits here may be higher or lower than overall.

SMILES	BJeLR viability	Bead autofluor	PrP UTR inh
CC1=NCCN1CCNC(=O)Nc1ccc(F)cc1	-5	.	-12
O=C(Nc1cccc(NC(=O)c2cccs2)c1)c1ccc(Br)cc1	5	.	-11
Cc1ccc2oc(/N=C(\N)NC(=O)C(C)(C)C)nc2c1	3	.	90*
CCOC(=O)c1c(C)[nH]c(C)c1S(=O)(=O)NCc1ccc(OCC)cc1	0	.	-19
Cc1nn(C(C)(C)C)c(C)c1/C=N/OC(=O)Nc1ccc(Cl)c(Cl)c1	6	.	23
[N-]=C=C1C(=O)NC(=O)C([n+]2ccc(-c3ccncc3)cc2)C1c1ccccc1C(F)(F)F (centres undefined)	2	.	-27
O=c1c2ccccc2nc(N/N=C/c2ccc(O)cc2)n1O	3	.	-6
COc1ccc(/C=N/NC(=O)Cn2cnc3c2c(=O)n(C)c(=O)n3C)cc1	5	.	-17
Cn1nc(C(F)(F)F)c(-c2cccc(C(F)(F)F)c2)c1NC(=O)c1nccnc1C(=O)O	-1	.	-24
COc1ccc2c(c1)c(C(=O)N/N=C/c1ccc(Br)cc1)c(C)n2C	14	.	-14
NNC(=O)CN1C(=O)CN=C(c2ccccc2)c2cc(Br)ccc21	12	.	-10
CSc1nnc(-c2ccncc2)n1/N=C/c1cn(-c2ccccc2)nc1-c1ccc(Cl)cc1	-11	.	7
CC(=O)c1ccc(N=C2C(=O)Nc3ccccc32)cc1	-6	.	10
C/C(=N\O)C(C)(C)Nc1ccc(Br)cc1	3	.	-18
CC(C)(C)c1ccc(O)c(/C=N\O)c1	9	.	-58
N#CCC(=O)N/N=C/c1cn(Cc2ccc(Cl)c(Cl)c2)c2ccccc12	0	.	23
Cc1cc([N+](=O)[O-])nn1Cc1ccc(C(=O)N/N=C/c2ccc(N(C)C)cc2)cc1	-4	.	-14
COc1cccc(CNc2ccc3[nH]c(=O)[nH]c3c2)c1OCc1ccc(F)cc1	10	.	1
COc1ccc(/C=N/n2c(=O)[nH]c3c([nH]c4ccc(F)cc43)c2=O)cc1CN1CCCCC1	-5	.	-21
CC(=O)Oc1c(-c2ccc(Br)o2)oc2ccccc2c1=O	-5	.	-16
CCOC(=O)Cc1csc(N/N=C\c2ccccc2OC)n1	-4	.	-1
CCOc1ccc(CNn2cnnc2)cc1	0	.	2
COc1ccc(NC(=O)c2cccc3ccccc23)cc1	2	.	0
ClC(/C=N/n1cnnc1)=C/c1ccccc1	0	.	-21
CCc1ccc(/C=N/Nc2ncnc3nc[nH]c23)cc1	-1	.	-75
CN(Cc1ccc(Cl)cc1)C(c1cc2ccccc2o1)c1nnnn1C(C)(C)C (centres undefined)	.	6168	.
CCc1nc2c(OCC3CCCCC3)cccn2c1N(C=O)Cc1ccc(OC)cc1	.	3917	.
C[C@H](O)[C@@H]1CN2CCc3c([nH]c4ccc(-c5ccc6c(c5)OCO6)cc34)[C@@H]2C[C@@H]1N(C)C(=O)Nc1cc(Cl)cc(Cl)c1	.	3879	.
CCCCn1nnnc1C(c1ccccc1)N1CCCN(Cc2ccc(F)cc2)CC1 (centres undefined)	.	4585	.
N#Cc1ccc(CN2CCN(C(=O)C3CC(=O)N(c4ccc5c(c4)OCCO5)C3)CC2)cc1 (centres undefined)	.	4608	.
CCCCN(C=O)c1c(CC)nc2c(OCC(=O)c3ccc(F)cc3)cccn12	.	4199	.
CCCCN(C(=O)c1cc(Cl)nc2ccccc12)c1c(N)n(CCC)c(=O)[nH]c1=O	.	2743	.
CC(N)C(=O)NC(C(=O)NC(C)C(=O)Nc1cccc2ccccc12)C(C)C (centres undefined)	.	3622	.
CC1C(=O)N(Cc2cn(CCC3OCCCO3)nn2)CCS(=O)(=O)N1Cc1ccc(-c2ccccc2)cc1 (centres undefined)	.	3326	.
CCOC(=O)[C@]12CCC=C1N(CCC1=CCCCC1)C(=O)[C@H](CC(=O)NCCC(C)C)C2	.	5885	.
Cc1ccc(F)cc1NC(=O)C1CC(=O)N(Cc2ccccc2)C1 (centres undefined)	.	3186	.
O=C(CC(=O)c1ccccc1)Nc1cccc([N+](=O)[O-])c1	.	3773	.
CC(C)c1ccc(NC(=O)C2Cc3c(-c4cccc(C(N)=O)c4)ccnc3O2)cc1 (centres undefined)	.	2904	.
O=C1/C(=C/c2ccc3c(c2)OCO3)SC(=S)N1CCC(=O)N(CCO)c1ccccc1	.	3658	.
CCc1cc(C(=O)N(CC)CC(=O)Nc2c(F)cccc2F)sc1C	.	3708	.
CCc1nc2ccc(C(=O)N3CCN(S(=O)(=O)CC)CC3)cn2c1N(CC)Cc1cccc(Br)c1	.	4112	.
Nc1nc2c(ncn2[C@@H]2O[C@H](CNCc3ccccc3)[C@@H](O)[C@H]2O)c(=O)[nH]1	.	5552	.
O=C(CC[C@H]1O[C@@H](n2cnc3c(NC(=O)c4ccccc4)ncnc32)[C@H](O)[C@@H]1O)N[C@@H](CO)Cc1c[nH]c2ccccc12	.	5588	.
CCOc1ccc(CCN2C(=O)C(=O)N([C@@H](CC(C)C)CN3CCC[C@H]3CN3C(=O)C(=O)NC[C@@H]3Cc3ccc(O)cc3)C[C@@H]2CC(C)C)cc1	.	5829	.
Nc1[nH]c(C(=O)c2ccccc2)c(-c2ccc(Cl)cc2)c1C(=O)NCCc1c[nH]c2ccccc12	.	4735	.

6 entries from above, arranged by heavy-atom count, low to high:
SMILES	BJeLR viability	Bead autofluor	PrP UTR inh
Cc1ccc(F)cc1NC(=O)C1CC(=O)N(Cc2ccccc2)C1 (centres undefined)	.	3186	.
CCCCN(C(=O)c1cc(Cl)nc2ccccc12)c1c(N)n(CCC)c(=O)[nH]c1=O	.	2743	.
CCOC(=O)[C@]12CCC=C1N(CCC1=CCCCC1)C(=O)[C@H](CC(=O)NCCC(C)C)C2	.	5885	.
CCc1nc2ccc(C(=O)N3CCN(S(=O)(=O)CC)CC3)cn2c1N(CC)Cc1cccc(Br)c1	.	4112	.
O=C(CC[C@H]1O[C@@H](n2cnc3c(NC(=O)c4ccccc4)ncnc32)[C@H](O)[C@@H]1O)N[C@@H](CO)Cc1c[nH]c2ccccc12	.	5588	.
CCOc1ccc(CCN2C(=O)C(=O)N([C@@H](CC(C)C)CN3CCC[C@H]3CN3C(=O)C(=O)NC[C@@H]3Cc3ccc(O)cc3)C[C@@H]2CC(C)C)cc1	.	5829	.

The list goes on.
SMILES	BJeLR viability	Bead autofluor	PrP UTR inh
COc1cccc(NC(=O)CN2CCC(NC(=O)c3ccccc3C)CC2)c1	.	3839	.
C[C@H](CO)N1C[C@H](C)[C@H](CN(C)C(=O)C2CC2)OCc2cnnn2CCCC1=O	.	3087	.
CC1=C(C(=O)N(C(C)C)C(C)C)CC(CC(=O)NCCCN(C)C)C(=O)N1CCCN1CCCC1=O (centres undefined)	.	5740	.
CCOC(=O)C1(C)CCN1C(=O)c1ccco1 (centres undefined)	.	3494	.
CC(Sc1nnc(-c2ccncc2)n1C)C(=O)NCC(=O)Nc1ccc(F)c(F)c1F (centres undefined)	.	3825	.
CCCN(CC(=O)Nc1ccccc1C)C(=O)c1cc2ccccc2oc1=O	.	3626	.
CC(=O)Nc1ccc(CNc2nc(NCCN(C)C)nc3cc(-c4ccccc4)sc23)cc1	.	3969	.
COc1cccc(C(=O)N2CCC2(C)C(=O)O)c1 (centres undefined)	.	3009	.
CCCC[C@@H]1Cc2[nH][nH]c(=O)c2[C@H](c2ccc(C(C)C)cc2)O1	.	5750	.
CCNC(=O)C1(C)CCN(C(=O)c2ccc3c(c2)OCO3)C1 (centres undefined)	.	3585	.
O=C1NC[C@H](Cc2ccc(O)cc2)N(C[C@@H]2CCCN2C[C@H](Cc2ccccc2)N2C[C@H](Cc3ccccc3)N(CCc3ccccc3)C(=O)C2=O)C1=O	.	4372	.
OC(c1ccc(-c2ccccc2)cc1)c1ncc(-c2ccccc2Cl)[nH]1 (centres undefined)	.	3059	.
CC(C)c1ccc(CC(=O)N2CCC2(C)C(=O)Nc2ccc3c(c2)OCCO3)cc1 (centres undefined)	.	2932	.
O=c1[nH][nH]c2c1[C@H](c1ccc(F)cc1)O[C@H](CCc1ccccc1)C2	.	4554	.
CCc1nc2c(OCC(=O)C(C)(C)C)cccn2c1N(C=O)Cc1ccc(OC)cc1	.	3871	.

Given with two lines to a compound: part of the list above.
Each structure is followed by: BJeLR viability | Bead autofluor | PrP UTR inh
- CCc1nc2c(OCC(=O)C(C)(C)C)cccn2c1N(C=O)Cc1ccc(OC)cc1
 : . | 3871 | .
- CC(=O)Nc1ccc(CNc2nc(NCCN(C)C)nc3cc(-c4ccccc4)sc23)cc1
 : . | 3969 | .

Additional compounds:
SMILES	BJeLR viability	Bead autofluor	PrP UTR inh
C[C@H](CO)N1C[C@H](C)[C@@H](CN(C)S(=O)(=O)c2ccc(F)cc2)OCc2cnnn2CCCC1=O	.	3576	.
C[C@H](CO)N1C[C@H](C)[C@@H](CN(C)Cc2cccnc2)Oc2cc(-c3cccnc3)ccc2S1(=O)=O	.	2900	.
CC(=O)N1CCc2cc(NC(=O)C3(C)CCN3CCc3ccccc3)ccc21 (centres undefined)	.	3957	.
C[C@H]1CN([C@@H](C)CO)C(=O)c2cc(/C=C/c3ccccc3)cnc2O[C@H]1CN(C)C(=O)c1cccc(F)c1	.	3225	.
CCc1nc2c(OCc3cccc(Cl)c3)cccn2c1N(C)C(C)=O	.	2948	.
COc1ccc(S(=O)(=O)N(C)C[C@H]2OCCCC[C@@H](C)Oc3ccc(NC(=O)CCC(F)(F)F)cc3C(=O)N([C@H](C)CO)C[C@@H]2C)cc1	.	3721	.
COc1cc(C(=O)OCCCN2CCOCC2)cc(OC)c1OC	.	3685	.
COc1ccc(/C=C/C(=O)Nc2ccc(C(C)=O)cc2)cc1S(=O)(=O)N1CCOCC1	.	3861	.
CCCCCCn1cc(CN2CC(N3CCN(Cc4ccccc4F)CC3)CS2(=O)=O)nn1 (centres undefined)	.	5696	.
Cc1noc(C)c1S(=O)(=O)N(C)C[C@@H]1OCc2cnnn2CCCC(=O)N([C@@H](C)CO)C[C@H]1C	.	3720	.
Cc1cccc(C)c1-n1nnnc1C(c1ccnc2ccccc12)N(Cc1ccccc1)Cc1ccccc1 (centres undefined)	.	6566	.
Cc1ccc(C(=O)NCC(=O)OCc2nnc(-c3ccc([N+](=O)[O-])cc3)o2)cc1	.	3915	.
Cn1c(=O)c2cc(NC(=S)NC3CCCCC3)ccc2n1Cc1cccc(C(F)(F)F)c1	.	3443	.
COc1cccc(C(c2nnnn2-c2c(C)cccc2C)N2CCN(C/C=C/c3ccccc3)CC2)c1OC (centres undefined)	.	6456	.
O=C1O[C@@H](c2ccccc2)C[C@@H](O)C(=O)CCc2ccccc21	.	5432	.
O=C(O)c1ccccc1-c1cccc2nncn12	.	3818	.
OCCN1CCN(c2ncnc3c2ncn3[C@H]2CN(Cc3ccc(F)cc3)C[C@@H](CO)O2)CC1	.	2925	.
CCOC(=O)[C@]12CCC=C1N(Cc1ccco1)C(=O)[C@H](CC(=O)NCC1CCCCC1)C2	.	6283	.
CC1=C(C(=O)N2CCOCC2)CC(CC(=O)NCc2ccco2)C(=O)N1Cc1ccccc1 (centres undefined)	.	3782	.
COc1cc(CNc2ncnc3c2ncn3[C@H]2CN(Cc3ccco3)C[C@@H](CO)O2)cc(OC)c1OC	.	3754	.
CCOC(=O)[C@]12CCCC=C1N(Cc1ccco1)C(=O)[C@H](CC(=O)N1CCN(C(=O)c3ccco3)CC1)C2	.	4508	.
N#Cc1ccc2c(=O)n(-c3ccccc3)sc2c1	.	3700	.
O=C1NC[C@@H](CCCCN2C[C@H](Cc3ccccc3)N(Cc3ccccc3)C(=O)C2=O)N(CCc2ccccc2)C1=O	.	4219	.
CCCCn1nnnc1C(c1ccccc1)N1CCN(c2ccc(C)cc2)CC1 (centres undefined)	.	6311	.
O=C(NC(c1ccc(-c2ccccc2)cc1)c1cnccn1)C1CCN(Cc2ccc(Cl)c(Cl)c2)CC1 (centres undefined)	.	3606	.
CCNC(=O)C1CCCN(C(=O)c2ccc(N(C)C)cc2)CC1 (centres undefined)	.	3570	.
CCCCN1CC(C)(C)[C@H](CC(=O)NC)C1=O	.	3386	.
CC(C)COC(=O)N(C)C[C@@H]1OCc2cnnn2CCCC(=O)N([C@@H](C)CO)C[C@H]1C	.	3392	.
Cc1ccc(NC(=S)/C(C#N)=C2/Nc3ccccc3S2)cc1	.	2959	.
COc1ccc(NC(=O)C2c3ccccc3OCC(=O)N2CCc2ccccc2)cc1 (centres undefined)	.	6330	.
C#CCn1cc2c(c1-c1ccccc1)c(=O)n(C)c(=O)n2C	.	4001	.
NC(CO)c1csc(Nc2ccc(C(=O)c3ccccc3)cc2)n1 (centres undefined)	.	3667	.
Fc1cccc(Cc2c(-c3cccc(Cl)c3)nc3c(Cl)cc(C(F)(F)F)cn23)c1	.	6308	.
CCOCCCNC(=O)Cn1nc(-c2ccc(OC)c(OC)c2)ccc1=O	.	4007	.
C[C@H](CO)N1C[C@H](C)[C@H](CN(C)C(=O)c2ccccn2)Oc2cc(C#Cc3ccc(F)cc3)ccc2S1(=O)=O	.	3696	.
C[C@H](CO)N1C[C@H](C)[C@H](CN(C)C(=O)Nc2ccc(F)cc2)OCc2ccccc2-c2c(n(C)c3ccccc23)C1=O	.	3272	.
CCOC(=O)CNC(=O)CSc1nc(C(C)C)nc2c1cnn2-c1ccccc1	.	3379	.
COc1ccc(-c2cc3nc(NCc4ccc(C)cc4C)n(C)c(=O)c3s2)cc1OC	.	3879	.
COc1ccc(NC(=O)c2cc(-c3cc(F)ccc3OC)n[nH]2)c(C)c1	.	3869	.
